Compound activity from PubChem.
HPGD inh – blocks human HPGD enzyme activity; P15428; Potency, µM, inactives show at the highest dose activity change, negative = inhibition, most hits filed as inhibitors; purified HPGD, NADH fluorescence kinetic, PGE2 substrate; 150,000 compounds, 4.3% hits; active = well fitted inhibition curve with a large enough effect (not every such curve was filed as active); inconclusive = small, poorly fitted or top-dose-only effect, or another doubt; inactive = no such curve, though single readings can be large or run the other way;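 note: top concentration of the series not given in the record; plate controls included wells without enzyme; inactives centre near -10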
Target sequence (P15428 whole entry, looked up): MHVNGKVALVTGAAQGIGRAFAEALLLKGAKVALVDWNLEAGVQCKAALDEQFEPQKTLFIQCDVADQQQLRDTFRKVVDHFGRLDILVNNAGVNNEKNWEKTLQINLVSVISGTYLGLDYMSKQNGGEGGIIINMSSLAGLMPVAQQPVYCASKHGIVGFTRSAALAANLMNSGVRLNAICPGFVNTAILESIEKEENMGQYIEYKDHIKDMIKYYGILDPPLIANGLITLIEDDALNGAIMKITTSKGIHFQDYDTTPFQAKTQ
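20 nM HPGD preincubated 15 min at room temperature with compound in 50 mM Tris-HCl pH 8, 0.01% Tween 20. Started with 1 mM NAD+ and 30 uM prostaglandin E2; NADH fluorescence (360/450 nm) read 5 times over 30-s intervals, last minus first.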
* = called active by the depositor; ? = inconclusive; & = joins results of further samples; [ ] = remark or other dose. % is set by controls: 0 for no effect and ±100 for the full control effect; potency is the fitted concentration of half-maximal effect.

canonical_smiles	HPGD inh
Fc1ccccc1CSc1nc2ccccc2[nH]1	20µM*
CC1(C)CC(=O)C2=C(C1)N(Cc1ccccc1)C(=O)C2(NC(=O)C(C)(C)C)C(F)(F)F (configuration not stated)	-6%
O=C(CSc1nc2ccccc2c(=O)n1NC(=O)Cc1ccccc1)NCc1ccccc1Cl	-8%
COc1ccc(S(=O)(=O)N2CCN(C(=O)c3cccc(Cl)c3)CC2)cc1	2%
C=C[C@H](N)CCC(=O)O	-9%&-4%
CCCCCCCCCCCCC[N+](C)(C)Cc1ccccc1	-8%
COc1ccc(C(=O)Cn2c3ccccc3n3nc(CCC(=O)O)c(=O)nc23)cc1OC	-24%
COc1ccccc1C(NC(=O)C1CCCCC1)c1c(O)ccc2ccccc12 (configuration not stated)	-9%
O=C(Oc1ccc(Cl)cc1N1C(=O)CCC1=O)c1ccco1	3%
CCCCSc1nnc(C)c(=O)[nH]1	-13%
CCc1ccc2c(c1)cc(CN(C(=S)Nc1ccccc1Cl)C1CC1)c1nnnn12	?
C/C(=N\NC(=O)CCn1nc(C)cc1C)C(C)(C)C	-3%
CCOc1c(OC)cccc1C1CC(=O)Nc2cc(OC)c(OC)cc21 (configuration not stated)	-6%
N=C(N)SCCCN	-8%
Cc1ccnc(SCC(=O)N2CCN(C(c3ccccc3)c3ccccc3)CC2)n1	-7%
COc1ccc(N=Cc2ccc[nH]2)cc1	-7%
CCn1c(=O)cc(OCC(=O)NC2CCCCC2)c2ccccc21	-17%
Cc1cc(C)n(-c2ccc(N3CCOCC3)nn2)n1	-23%
Cc1nnc(NC(=O)CSc2nnc(-c3ccoc3C)n2CC(C)C)s1	-7%
CC1CN(Cc2cc(=O)[nH]c(C3CC3)n2)CC(C)O1 (configuration not stated)	-10%
CCC1=C2CC[C@H]3C(=O)NC(=O)[C@H]3[C@H]2[C@@]2(Cc3ccccc3)C(=NCC(=O)OC)OC(=O)N2C1=O	-6%
C[C@@H](C(=O)Nc1ccc2ccccc2c1)[C@H]1C[C@]1(C)[C@H](NC(=O)Oc1ccc(F)cc1)c1ccccc1	-7%
CN1CCN(NC(=O)c2cccc(Br)c2)CC1	-2%
CCOC(=O)c1ccc(Nc2cc(C)nc(-c3ccccc3O)n2)cc1	?
CCC1=C(OC(=O)N(CC)CC)N2C(=O)OC(=NCC(=O)OC)[C@]2(Cc2ccccc2)[C@H]2C1=CC[C@H]1C(=O)N(CC(=O)OC)C(=O)[C@H]12	-13%
CC(=O)Nc1ccc(NC(=O)Cn2c(-c3ccc(F)cc3)cnc2SCC(=O)Nc2c(C)cccc2C)cc1	0%
Cc1ccc(-c2nc(CSc3nc4ccccc4c(=O)n3C)cs2)cc1	-26%
CCCNS(=O)(=O)c1ccc(OC)c(Cl)c1Cl	-13%
COc1ccc(NC(=O)CCS(=O)(=O)c2ccc(OC)cc2)cc1	1%
CN1CCc2cccc3c2C1Cc1ccc(O)c(O)c1-3 (configuration not stated)	5µM*
CCOc1ccc(C2Nc3cccc4cccc(c34)N2)cc1OC	-28%
O=C(O)C1=C/C(=C(/c2ccccc2)c2cc(C(=O)O)c(O)c3ccccc23)c2ccccc2C1=O	-5%&-4%
Cc1ccc(S(=O)(=O)N(CCCN2CCCC2=O)Cc2cc3c(C)ccc(C)c3[nH]c2=O)cc1	31%[activator]
COc1ccc(-n2c(SCC(=O)NC3CCCCC3)nc3ccsc3c2=O)cc1	-8%
COC(=O)C(O)(CC(=O)Nc1cc(Cl)ccc1Cl)C(F)(F)F (configuration not stated)	-11%
Cc1ccccc1NC(=O)/C(C#N)=C\c1cccnc1	0%
COc1ccc(NC(=O)C2(c3ccc(NC(=O)c4ccc(C)cc4)cc3)CCCC2)cc1	?
Cc1nn(Cc2ccccc2)c(C)c1NC(=O)c1noc2c1CCc1ccccc1-2	-20%
CCOC(=O)c1cccc(NC(=O)CCc2nc(-c3ccc(C)cc3)no2)c1	-15%
Oc1ccc(-c2nc3ccccn3c2NCc2ccco2)cc1	?
CCc1nn2cc(-c3ccccc3)nc2s1	-10%
CCOC(=O)CNc1oc(-c2ccccc2)nc1-c1ccccc1	-5%
Cc1cc(C)n(-c2ccc(C(=O)OCC(=O)Nc3ccc(Cl)c(S(=O)(=O)N(C)C)c3)cc2)n1	-6%
CC1=[N+](C)N(c2ccccc2)C(=O)C1N=Cc1ccccc1Cl (configuration not stated)	-2%
Cc1cccc(NC(=O)CCN2CC(C)OC(C)C2)c1 (configuration not stated)	-7%
CCn1c(SC(=O)NC2CCCCC2)nnc1-c1cccs1	?
CC(=O)CCc1c(C)c2cc(C)ccc2[nH]c1=O	-11%
O=C(CCSCCC(=O)NCc1cccs1)NCc1cccs1	-4%
CCn1c(=O)c([N+](=O)[O-])c(NCCc2ccccc2)c2ccccc21	16µM*
COc1ccc(NC(=O)c2cc3c(-c4ccc(OC)c(OC)c4)nn(C)c3s2)cc1OC	-20%
CCOC(=O)CSc1nc(-c2ccccc2)nc2ccc(F)cc12	-26%
Cc1cccc(N2CCN(C(=O)C3CCN(S(=O)(=O)c4cnc[nH]4)CC3)CC2)c1C	5%
COc1ccc(C(=O)COC(=O)COc2ccc(C)c(C)c2)cc1	?
CCS(=O)(=O)N1CCN(Cc2ccccc2OC)CC1	3%
CC1CN(Cc2ccc(C#N)cc2Cl)CC(C)O1 (configuration not stated)	-5%
Cc1ccc(/C=N/NC(=O)Cc2c[nH]c3ccccc23)c(C)c1	-9%
Cc1ccc(-n2c3c(cc(C(=O)NC4CCSC4=O)c2=O)C(=O)CCC3)cc1 (configuration not stated)	-7%
O=C(Oc1c(Cl)cc(Cl)c2cccnc12)c1cccs1	-2%
CCC(=O)N=c1sc2cc([N+](=O)[O-])ccc2n1CCOC	-12%
Cc1cccc(NC(=O)CSc2ccc(-c3ccc4c(c3)OCO4)nn2)c1C	-15%

(next part)
canonical_smiles	HPGD inh
CCOC(=O)CNC(=O)c1c(C)nn(-c2ccccc2)c1Cl	?
CC12CCC(O)CC1=CCC1C2CCC2(C)C1CCC21CCC(=O)O1 (configuration not stated)	5%
Cc1cccc(C)c1NC(=O)/C(C#N)=C/c1ccsc1	-6%
O=C(c1ccc(S(=O)(=O)N2CCCCC2)cc1)N1CCN=C1SCc1cccnc1	1%
O=C(OCC(=O)N1CCN(C(=O)c2ccco2)CC1)c1ccccc1OCc1ccc(Cl)cc1	-12%
CCOC(=O)CC(NC(C)=O)c1ccc([N+](=O)[O-])cc1 (configuration not stated)	3%
CCN(CC)C(=O)C(Sc1ccccc1)c1ccccc1 (configuration not stated)	4%
COc1ccc(N2CCC(CNS(=O)(=O)c3cccc(C(F)(F)F)c3)C2)cc1 (configuration not stated)	-19%
CCN(Cc1ccncc1)C(=O)c1cccc(S(=O)(=O)N2CCOCC2)c1	-10%
CC1=C2C(CCS2(=O)=O)CC2(C1)C(=O)OC(C)(C)OC2=O (configuration not stated)	-3%
Cc1cc(Nc2ccc(Cl)cc2)n2nnnc2n1	-23%
COc1nc(Nc2ccc(OC)c(Cl)c2)nc(OC)n1	-8%
C[C@]12CCC(=O)C=C1CCC1C2C(=O)C[C@]2(C)C1CC[C@]2(O)C(=O)CO (some centres not stated)	-4%
CCCCCCn1c(=O)c(-c2ccccc2)c(O)c2ccccc21	-27%
CC(=O)O[C@](C)(CCC=C(C)C)C1CC=C(C)CC1 (some centres not stated)	-6%
CN=C1S/C(=C\c2ccc(Sc3ccc(Cl)cc3)o2)C(=O)N1C	-6%
CC(OC(=O)c1ccc(Cl)c(S(=O)(=O)N2CCc3ccccc32)c1)C(=O)Nc1ncc(Cl)cc1Cl (configuration not stated)	-15%
O=C(CSc1nc(-c2ccccc2)cs1)Nc1nccs1	-15%
COc1ccc(CNC(=O)COc2ccc([N+](=O)[O-])cc2)cc1	-1%
COc1ccc(Cc2nnc(SCC(=O)c3ccc(OC)cc3)o2)cc1	-4%
CCOC(=O)c1c(C)[nH]c(C=Nc2ccccc2)c1O	?
CCC(=O)Nc1ccc(SC#N)cc1C	-16%
Cc1nnc(SC(C)C(=O)Nc2ccc(S(=O)(=O)N3CCCCCC3)cc2)s1 (configuration not stated)	-13%
COc1ccc(O)c(C2=Nc3ccccc3N=C(c3cccs3)C2)c1	-7%
COCCN1C(=O)N[C@@H](c2cccc(F)c2)C(C(=O)OC)=C1C	-7%
O=C(CSCc1ccc([N+](=O)[O-])cc1)Nc1ccc(S(=O)(=O)N2CCCCCC2)cc1	-8%
C=CCN(C(=O)CCC(=O)O)C1CC(=O)N(c2ccc(OC)cc2)C1=O (configuration not stated)	-7%
Cc1ccc(OCCCC(=O)N2CCOCC2)cc1	-21%
Fc1cccc(NC(=S)Nc2ccc(Br)cc2)c1	-11%
O=C(NC(NC(=O)c1ccccc1)c1cccc([N+](=O)[O-])c1)c1ccccc1	-4%
CCCC(=O)Nc1cc(C(=O)O)ccc1S(=O)(=O)c1ccc(Cl)cc1	-5%
Cc1c(Br)c([N+](=O)[O-])nn1C(C)C(=O)Nc1nccs1 (configuration not stated)	-10%
CC(/C=C/c1ccc2c(c1)OCO2)=N\NC(=O)COc1ccccc1C	-7%
O=C(Nc1ccc(OC(=O)c2ccccc2)c(-c2nc3ccccc3s2)c1)c1ccccc1	-3%
O=C(OCc1ccc(F)cc1Cl)c1ccccn1	-16%
Cc1ccc(-n2c(=O)cc(N3CCCCCC3)[nH]c2=O)cc1	-4%
CCOc1ccc(N2C(=O)/C(=C/c3cccs3)N(C)C2=S)cc1	-9%
Cc1ccc(F)cc1NC(=O)c1c(-c2ccccc2)noc1C	-12%
c1ccc(CNCc2ccc3c(c2)OCO3)nc1	-3%
COc1ccccc1/C=N/NC(=O)CN(C1=NS(=O)(=O)c2ccccc21)c1ccccc1	?

Sorted by the number under HPGD inh (lowest first): three from the list above
SMILES	HPGD inh
CN1CCc2cccc3c2C1Cc1ccc(O)c(O)c1-3 (configuration not stated)	5µM*
CCn1c(=O)c([N+](=O)[O-])c(NCCc2ccccc2)c2ccccc21	16µM*
Fc1ccccc1CSc1nc2ccccc2[nH]1	20µM*

Following part
canonical_smiles	HPGD inh
CC(C)OP(C)(=O)CN1CCN(CP(C)(=O)OC(C)C)CC1 (configuration not stated)	-3%
CC(C)c1ccc2c(c1)CC[C@H]1[C@@](C)(CN)CCC[C@@]21C	-5%
COc1ccc(-n2nnc3c(SCC(=O)NCC4CCCO4)ncnc32)cc1 (configuration not stated)	?
Cc1ccc(-n2c(SCC(=O)c3c(N)n(C)c(=O)n(C)c3=O)nc3sc4c(c3c2=O)CCCC4)c(C)c1	-25%
CCc1ccc(NC(=O)COC(=O)CN2C(=O)COc3ccccc32)cc1	-11%
COC(=O)c1ccc(N2Cc3ccccc3/C2=N\C(=O)Nc2ccccc2)cc1	?
CC1=Nn2c(nnc2-c2ccccc2F)SC1	-10%
COc1cccc(C(=O)NNC(=O)Cc2ccc([N+](=O)[O-])cc2)c1	-3%
Cn1c(SCC(=O)N2c3ccccc3CCc3ccccc32)nnc1-c1ccc(O)cc1	5%
COc1ccccc1OCCNC1CCCC1	-9%
CC(=O)O[C@@]1(C(C)=O)CCC2C3CC(C)C4=CC(=O)CC[C@@]4(C)C3CC[C@]21C (some centres not stated)	4%
CCCCCC(O)CCc1n[nH]c(=S)n1-c1ccccc1 (configuration not stated)	?
CN1/C(=C\C(=O)CSc2ncn[nH]2)C(C)(C)c2ccccc21	-18%
C=C1CCC(OC(C)=O)/C(C)=C/CC2[C@H]1CC2(C)C (some centres not stated)	-1%
Cc1nc(=O)c(-c2ccccc2)c(C)n1-c1ccccc1O	-7%
Cc1ccc(-n2c(=O)[nH]cc(C(=O)N3CCc4ccccc43)c2=O)cc1	-8%
Nc1nc2n(n1)C(c1ccco1)CC(c1ccc(Cl)cc1Cl)N2 (configuration not stated)	-9%
CCCCCCc1nc2ccccc2c(=O)n1N	-9%
Cc1ccc(-c2nnc(-c3ccccc3)c(-c3ccccc3)n2)cc1	-8%
C=C(C)c1cccc(C(C)(C)NC(=O)Nc2ccc3[nH]c(=O)[nH]c3c2)c1	-14%

Reformatted as labelled records: entries from further up
Cc1nc(=O)c(-c2ccccc2)c(C)n1-c1ccccc1O
  HPGD inh = -7%

Cc1ccc(-n2c(=O)[nH]cc(C(=O)N3CCc4ccccc43)c2=O)cc1
  HPGD inh = -8%

Nc1nc2n(n1)C(c1ccco1)CC(c1ccc(Cl)cc1Cl)N2 (configuration not stated)
  HPGD inh = -9%

CCCCCCc1nc2ccccc2c(=O)n1N
  HPGD inh = -9%

(listing goes on)
canonical_smiles	HPGD inh
c1ccc(CSc2nnc(-c3cccnc3)o2)cc1	-24%
COC(=O)c1cccc(NC(=S)NCc2ccc(Cl)cc2)c1	-26%
COc1ccccc1C=NC(CO)C(O)c1ccc([N+](=O)[O-])cc1 (configuration not stated)	-13%
CCCS(=O)(=O)N1CCN(S(=O)(=O)c2ccc(F)cc2)CC1	-9%
N#C/C(=C\c1ccc(OC(=O)c2cccs2)cc1)c1nc2ccccc2[nH]1	?
CC(C)(C)C1CCc2c(sc(NC(=O)c3cccs3)c2C(=O)N2CCCCC2)C1 (configuration not stated)	-14%

The list is partial; the hit share may differ from the screen's.
